ALR inh: inhibitors of human sulfhydryl oxidase ALR; P55789; purified ALR, DTT oxidation, H2O2 HRP-luminol luminescence; inhibition, % (concentration not given with the values); 3.8% of 290,000 active; AID 485317;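 active = mean and each replicate at 75% or more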;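 note: stock transfer was 7.5 nL into about 7.5 µL; 0% = neutral wells and 100% = wells with inactivated enzyme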
HNF4A DNA FP: change in binding of human HNF4 alpha to DNA | activity change, % at 10 µM | P41235 | 0.3% of 360,000 active | HNF4a-FITC DNA binding, fluorescence polarization, 1 h; in the data active = activity change above about 30%, passing the limit was not always enough;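 note: controls were the assay level and a saturating level of protein; the project sought stronger binding though the title names inhibitors; some compounds called inactive have numbers as strong as hits; positive values seem to mean higher polarization but the record does not say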
Target sequence (P41235 whole entry, looked up): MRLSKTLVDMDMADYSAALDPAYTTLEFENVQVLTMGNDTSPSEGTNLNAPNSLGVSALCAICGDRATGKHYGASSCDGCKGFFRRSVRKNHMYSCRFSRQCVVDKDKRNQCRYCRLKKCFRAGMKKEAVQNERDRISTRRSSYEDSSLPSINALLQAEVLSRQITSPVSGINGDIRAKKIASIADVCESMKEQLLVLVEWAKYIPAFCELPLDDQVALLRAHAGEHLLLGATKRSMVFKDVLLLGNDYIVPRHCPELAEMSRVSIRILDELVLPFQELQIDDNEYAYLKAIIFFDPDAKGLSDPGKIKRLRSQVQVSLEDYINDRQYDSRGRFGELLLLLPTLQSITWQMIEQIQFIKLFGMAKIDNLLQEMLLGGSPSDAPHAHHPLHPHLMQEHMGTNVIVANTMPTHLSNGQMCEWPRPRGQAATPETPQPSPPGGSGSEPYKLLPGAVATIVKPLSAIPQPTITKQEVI
B2AR ag: activates human beta-2 adrenergic receptor causing internalization | P07550 | Am2.2-beta2AR cells, FAP receptor internalization, flow cytometry; reference of the scale not given here | response, % (no concentration beside the values) | 0.43% of 340,000 active | AID 504454;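 active = response above a set limit, near 3 SD of response in nonfluorescent compounds, cut at about 42% in these data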;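 note: stock transfer was 100 nL into about 11 µL; a reference agonist was the positive control; negative values mostly stem from fluorescent compounds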
Target sequence (P07550 whole entry, looked up): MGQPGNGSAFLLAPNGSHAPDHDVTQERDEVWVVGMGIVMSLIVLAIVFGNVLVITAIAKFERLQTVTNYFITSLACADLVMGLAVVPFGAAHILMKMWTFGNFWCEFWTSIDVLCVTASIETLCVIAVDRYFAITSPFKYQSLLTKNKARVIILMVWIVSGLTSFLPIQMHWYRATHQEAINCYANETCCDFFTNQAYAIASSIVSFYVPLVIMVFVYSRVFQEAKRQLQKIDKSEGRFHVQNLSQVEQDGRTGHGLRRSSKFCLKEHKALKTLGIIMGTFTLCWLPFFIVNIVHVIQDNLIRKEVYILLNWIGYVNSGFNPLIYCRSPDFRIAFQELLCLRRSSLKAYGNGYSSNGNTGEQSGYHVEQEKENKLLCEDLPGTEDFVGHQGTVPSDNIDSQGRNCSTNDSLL
UCH37 DUB inh: inhibitors of human deubiquitinating enzyme UCH37; Q9Y5K5; purified proteasome/UCH37, Ub-AMC cleavage fluorescence; inhibition, % (test concentration not listed); 0.33% of 330,000 active; AID 588478;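 active = mean of two replicates above 20%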;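 note: 0% = compound-free wells with enzyme and 100% = wells lacking proteasome; stock transfer was 100 nL into about 20 µL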
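Material: Human UCH37 enzyme supplied as purified proteasome complex | Schedule: 30 min compound-proteasome preincubation then 25 min substrate reaction, room temperature | Detection: AMC fluorescence from Ub-AMC cleavage, excitation 355 nm, emission 460 nm | Benchmarks: Wells without proteasome as full block, compound-free enzyme plus substrate as uninhibited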
Ecoli growth: blocks Escherichia coli growth. OD600, 23 h; stronger effect = lower value. OD600 absorbance (concentration not given with the values). 0.21% of 330,000 active. AID 1053175;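 active = OD600 absorbance below the run mean of sample wells minus 3.6 SD, in any replicate, cut at about 0.56 in these data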;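 note: stock transfer was 300 nL into about 60 µL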
rRNA inh HTS: inhibits bacterial ribosomal RNA function over humanized ribosomes. E. coli WT GFP vs humanized-ribosome RFP mutants, fluorescence, 24 h; stronger effect = lower value; DMSO median 0, no signal -100. GFP signal change (wild-type ribosome), % (test concentration not listed). 1.6% of 350,000 active;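 active = significant combined selectivity score with lowered wild-type GFP, culture density cut under 30%, mutant RFP and density less affected; inactive = any of these conditions unmet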; note: one replicate is shown; some compounds called inactive have numbers as strong as hits
FGF22 binding: FGF22 (human) thermal shift binding. Q9HCT0. recombinant FGF22 thermal shift, SYPRO orange fluorescence; percent of sucrose octasulfate shift, DMSO zero. calls only at 9.99 µM. 1.5% of 340,000 active;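 active = melting point raised past a set limit in the mean and every replicate; three in four hits are not shown here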
Target sequence (Q9HCT0 whole entry, looked up): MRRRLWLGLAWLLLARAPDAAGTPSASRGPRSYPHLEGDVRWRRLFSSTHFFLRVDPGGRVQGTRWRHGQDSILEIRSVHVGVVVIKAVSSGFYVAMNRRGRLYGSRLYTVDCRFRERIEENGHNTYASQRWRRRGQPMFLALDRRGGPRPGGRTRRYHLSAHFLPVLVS
rRNA inh HTS OD600: further read-out of rRNA inh HTS, marked with its call; OD600 change, %; measured here: OD600 growth;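 optical density of the mix in the first replicate; 0 = DMSO median and -100 = no signal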
rRNA inh HTS RFP: further read-out of rRNA inh HTS, marked with its call; RFP signal change, %; measured here: RFP humanized mutant strains;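 first replicate; 0 = DMSO median and -100 = no signal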
* marks the source's active call; other numbers are inactive results; i = inactive; . = not tested or not shown. This is a subset; the hit share may differ from the screen's.

SMILES | ALR inh | HNF4A DNA FP | B2AR ag | UCH37 DUB inh | Ecoli growth | rRNA inh HTS | rRNA inh HTS OD600 | rRNA inh HTS RFP | FGF22 binding
Cc1ccc(-c2n[nH]c(=O)c3ccccc23)cc1S(=O)(=O)N(C)C | -2.2 | 0.3 | -2.4 | 4.5 | 0.731 | 0.7 | -1.8 | -1.9 | i
Cc1nc(C)c(C(=O)C2=C(O)C(=O)N(CCCn3ccnc3)C2c2ccc(Cl)cc2)s1 (stereo unspecified) | . | 1.4 | 3.7 | 10.3 | 0.755 | . | . | . | .
COc1ccc(-c2ccc(N)cn2)cn1 | 9.3 | -4.0 | -5.1 | -2.8 | 0.618 | -0.2 | 15.1 | -2.5 | i
CCSc1nnc(NS(=O)(=O)c2ccc(OC)cc2)s1 | 5.4 | -4.7 | 1.7 | -0.9 | 0.677 | -10.4 | -12.6 | -3.7 | .
Cc1cc(SCC(=O)OCC(=O)c2c(N)n(C)c(=O)n(C)c2=O)c(C)cc1Br | 4.9 | 3.8 | -2.5 | 0.6 | 0.709 | -0.6 | -1.6 | -1.4 | .
O=C(c1ccc([N+](=O)[O-])s1)N1CCN(c2ccccn2)CC1 | -63.8 | -0.2 | -1.8 | 5.3 | 0.66 | 0.4 | 4.0 | -3.3 | i
COc1ccc(CNC(=O)C2CCCN2S(=O)(=O)c2ccccc2)cc1 (stereo unspecified) | -2.6 | -0.8 | -3.9 | 6.5 | 0.671 | . | . | . | .
COc1ccc(C(=O)c2ccc(OC)c(OC)c2OC)cc1 | . | 2.2 | -3.3 | 5.8 | 0.658 | 3.9 | 3.8 | -2.2 | i
Cc1ccc(CC2C(=O)N(c3cc(C)ccc3C)C(=O)C2C)cc1 (stereo unspecified) | 9.8 | -2.8 | -0.9 | 2.9 | 0.663 | -20.9 | -34.1 | 2.1 | i
O=C(O)CCNS(=O)(=O)c1ccc2ccccc2c1 | -12.4 | 0.2 | 19.9 | 4.8 | 0.74 | . | . | . | .
COc1cccc(/C=c2/s/c(=C(\C#N)C(=O)N3CCOCC3)n(-c3ccccc3)c2=O)c1 | -6.7 | -3.3 | -3.4 | . | . | . | . | . | .
CN(C)c1nc(N)c([N+](=O)[O-])c(NCC2CCCO2)n1 (stereo unspecified) | . | 3.1 | -7.4 | 11.0 | 0.696 | -3.2 | -0.9 | -1.4 | i
CCOC(=O)NCC(C)(C)CNC(=O)OCC | -2.6 | 6.1 | -5.8 | 1.7 | 0.712 | . | . | . | .
CCc1nc2ccccc2c(C(=O)OCC(=O)NC(=O)c2cccn2C)c1C | 2.6 | 4.9 | -2.0 | 4.1 | 0.689 | -24.5* | -10.6* | 6.6* | i
COc1ccc(-c2nc(C=O)cs2)cc1 | -16.2 | -0.9 | -0.6 | 3.2 | 0.725 | 2.4 | -5.9 | 0.5 | i
CN(C(=O)c1cccs1)c1ccc(OCC(=O)Nc2ccc(C(=O)O)cc2)cc1 | -12.3 | -1.6 | 3.4 | 4.9 | 0.722 | -4.0 | -6.1 | -0.9 | i
CC12CCC=CC1=C(C=O)C1C2CCC2(C)C(O)CCC12 (stereo unspecified) | . | 0.0 | 10.7 | 3.5 | 0.65 | -18.1 | -30.1 | 0.9 | .
O=C(C1CCCO1)N1CCc2ccccc21 (stereo unspecified) | -13.2 | -1.5 | -6.7 | -0.2 | 0.709 | . | . | . | .
CC1=CC(=C2C(=O)c3ccccc3C2=O)C=C(C)N1C | -0.2 | 0.4 | -26.6 | 14.0 | 0.679 | . | . | . | .
Cc1ccc(C(=O)OCC(=O)NCc2cccs2)cc1C | -5.2 | 2.4 | 7.8 | 0.0 | 0.706 | 2.2 | 5.5 | 0.2 | i
CCCSc1cc(N2CCOCC2)nc(-c2ccccc2Cl)n1 | -1.4 | 1.8 | -4.7 | 2.5 | 0.709 | . | . | . | .
Cc1cccc2cc(C(c3nnnn3Cc3ccccc3)N3CCCc4ccccc43)c(=O)[nH]c12 (stereo unspecified) | -19.0 | -8.5 | -16.1 | -3.1 | 0.712 | -1.3 | 5.8 | 1.3 | .
Cc1ccc2c(C)c(C(=O)N3CCN(C4CCS(=O)(=O)C4)CC3)oc2c1C (stereo unspecified) | -2.9 | 2.5 | 0.6 | 1.3 | 0.669 | 2.3 | -3.2 | 1.1 | i
COC(=O)C1(C(=O)OC)NOC2C(=O)N(N(C)c3ncc(C(F)(F)F)cc3Cl)C(=O)C21 (stereo unspecified) | 3.1 | 0.9 | 2.7 | 1.0 | 0.687 | 14.6 | 13.1 | 0.0 | i
COc1ccc2ccccc2c1C1CC(=O)N2CN(C3CCCCC3)CSC2=C1C#N (stereo unspecified) | -124.2 | -0.1 | 14.0 | 6.9 | 0.773 | 6.7 | -0.4 | 4.2 | i
COc1ccc(C)cc1NC(=O)C1CCCN1S(=O)(=O)c1ccc2c(c1)CCC(=O)N2 (stereo unspecified) | -24.5 | 7.8 | 9.9 | 5.7 | 0.709 | 2.7 | -2.7 | -0.4 | i
CCOC(=O)Cc1csc(NC(=O)CSc2nc(=O)[nH]c3c2CCC3)n1 | -297.5 | -0.7 | -4.8 | 5.4 | 0.648 | 14.2 | 4.2 | 0.2 | i
CC(C)c1cc(-c2cc(C(=O)NCc3ccccc3)on2)nc(NCC2CC2)n1 | -22.5 | -0.1 | -1.9 | -2.3 | 0.689 | -2.2 | -16.6 | 13.7 | i
Cc1cc(Oc2ccc(=O)n(C)n2)nc(SCCOc2ccccc2)n1 | -10.5 | 6.0 | -2.1 | 0.0 | 0.614 | -11.8 | -11.6 | -0.4 | i
COc1cccc(OCC(=O)N(Cc2nc(-c3ccc(Cl)cc3)no2)C(C)C)c1 | -2.5 | -11.3 | -3.9 | 5.1 | 0.717 | -5.5 | 1.4 | 7.0 | i
CC(C)N(C(=O)COC(=O)[C@@H]1CC(O)CN1S(=O)(=O)c1ccc(C(C)(C)C)cc1)C(C)C (stereo partly specified) | -2.9 | -2.1 | 1.7 | 4.4 | 0.68 | 9.2 | 9.4 | 0.9 | i
O=C(CN1C(=O)COc2ccccc21)N1CCOCC1 | 4.0 | -1.7 | 3.8 | 3.3 | 0.689 | 6.6 | -5.8 | -1.1 | i
COc1ccc(C2C(C(N)=O)=C(C)Nc3nc(-c4ccccc4OC)nn32)cc1OC (stereo unspecified) | -31.7 | 4.7 | -6.3 | -1.2 | 0.691 | . | . | . | .
C=CCNC(=O)C(=O)N/N=C/c1cccc(Br)c1 | -4.6 | 0.8 | -0.6 | . | . | 7.9 | 5.8 | -0.3 | i
C=CCn1c(SCC(=O)c2c(N)n(C)c(=O)n(C)c2=O)nc2sc(CC)cc2c1=O | 0.5 | -0.4 | -7.0 | 1.8 | 0.756 | . | . | . | .
CCOCCn1c(SCCc2ccccc2)nc2c1c(=O)[nH]c(=O)n2C | 8.1 | 2.0 | -2.3 | 6.1 | 0.772 | -1.9 | -5.7 | -4.7 | i
CC(C)NC(=O)C1CCN(C(=O)C(C(=O)c2ccccc2)n2cc(Cl)ccc2=O)CC1 (stereo unspecified) | -5.4 | -1.3 | 0.4 | 1.1 | 0.703 | . | . | . | .
CCC(C)[C@H](NC(=O)[C@@H]1CSC2c3ccccc3C(=O)N21)C(=O)NCc1ccco1 (stereo partly specified) | 6.7 | -2.0 | -4.3 | 0.9 | 0.667 | 1.1 | 4.9 | 0.5 | i
Cc1sc(NC(=O)CN(CCc2ccccc2)C(=O)C2CC2)c(C(N)=O)c1C | 17.1 | -2.7 | -9.3 | 1.4 | 0.661 | 4.6 | 5.9 | -1.3 | i
O=C(O)CC1SC(=Nc2ccc(O)cc2)NC1=O (stereo unspecified) | 51.0 | -1.5 | -1.8 | 3.8 | 0.745 | 20.1 | 6.4 | -1.4 | i
CCCN1CCN(C(=O)c2cc(COc3ccc(F)c(F)c3)on2)CC1 | -12.2 | 0.5 | 3.0 | 0.9 | 0.69 | -0.1 | -0.5 | 0.5 | i
O=C(O)c1cccc([N+](=O)[O-])c1C(=O)Nc1ccc2ccccc2c1 | -14.0 | -2.7 | 4.1 | . | . | -2.2 | -5.2 | -0.4 | i
CCCCCCCSc1nnc(-c2ccccc2N)c(=O)[nH]1 | -4.6 | 2.3 | 0.6 | . | . | -41.7 | -70.1 | -10.0 | i
CC1(C)Cc2cccc(OCC(=O)Nc3ccccc3C(F)(F)F)c2O1 | -3.6 | 40.5* | 21.2 | 1.8 | 0.673 | -37.8 | -56.6 | -6.8 | i
COc1ccc(-c2[nH]ncc2CN2CCCCCCC2)c(OC)c1 | . | 34.0 | 3.1 | 2.2 | 0.666 | -2.9 | 8.7 | 2.9 | i
Cc1cccc(C)c1OCCN1CCCC1 | -0.9 | -2.3 | 6.7 | -3.2 | 0.689 | -4.8 | 4.4 | -4.0 | i
CCOc1ccccc1NC(=O)C1CCN(C(=O)NCc2ccccc2)CC1 | -4.2 | 0.6 | 2.2 | 4.6 | 0.689 | . | . | . | .
COC(=O)c1ccc(CO/N=C/c2ccc(OC)cc2OC)cc1 | -4.3 | -0.5 | -8.8 | . | . | -4.5 | 9.0 | 1.7 | i
CCO/N=C(/c1nonc1N)N1CCN(c2ccc([N+](=O)[O-])cc2)CC1 | 1.1 | 0.2 | 0.2 | . | . | . | . | . | .
Cc1nn(C)c(Cl)c1CN1CCN(CCC(C)C)C(CCO)C1 (stereo unspecified) | . | 0.1 | 1.6 | 2.4 | 0.699 | 13.4 | 4.5 | -2.1 | i
The list goes on:
SMILES | ALR inh | HNF4A DNA FP | B2AR ag | UCH37 DUB inh | Ecoli growth | rRNA inh HTS | rRNA inh HTS OD600 | rRNA inh HTS RFP | FGF22 binding
O=C(CCCN1C(=O)c2ccccc2C1=O)NCCCN1CCOCC1 | 2.0 | -4.0 | -4.2 | 1.8 | 0.684 | . | . | . | .
CCOc1ccc(CCNC(=O)COC(=O)c2ccc(Cl)nc2)cc1OCC | -14.0 | 3.3 | -5.7 | 3.0 | 0.686 | 7.5 | 1.0 | 0.2 | i
COc1ccccc1N1CCN(C(=O)c2cc3c(s2)CCC3)CC1 | 9.2 | -7.3 | -6.7 | 2.9 | 0.628 | . | . | . | .
Cc1cc(C)n2cc(-c3ccc(Cl)cc3)c(C(=O)O)c2n1 | -5.3 | -1.2 | 11.8 | -2.6 | 0.693 | -1.7 | 2.7 | -0.8 | i
CCOC(=O)c1cnc(N2CCN(C(=O)OCC)CC2)[nH]c1=O | 4.3 | -4.0 | 9.6 | 1.7 | 0.662 | 10.6 | 6.8 | -0.9 | i
CC(C(=O)N1CCCC1)c1ccc([N+](=O)[O-])cc1 (stereo unspecified) | -11.3 | 4.2 | -1.2 | 1.3 | 0.672 | 4.9 | 1.0 | -0.5 | i
O=C(CCc1ccccc1)Nc1ncc2c(n1)CCCC2=O | -4.5 | 0.9 | 1.3 | 0.2 | 0.672 | . | . | . | .
COc1ccc(CCNC(=O)C(=O)NCc2ccccc2)cc1OC | -18.4 | -3.8 | -10.3 | -2.2 | 0.703 | . | . | . | .
Cc1ccc(CN(C)C(=O)COC(=O)CSc2ccc([N+](=O)[O-])cc2)cc1 | -14.3 | 0.7 | -1.0 | 2.9 | 0.672 | -6.2 | -4.9 | 2.8 | i
Cc1nnc2n1N=C(c1ccc3c(c1)NC(=O)CO3)CS2 | -6.3 | . | . | 7.0 | 0.707 | 6.9 | 0.3 | 4.9 | i
CCCOCc1ccc(O)c2ncccc12 | -9.5 | 1.4 | 11.5 | -0.3 | 0.679 | -10.3 | -3.2 | 3.8 | i

Screening results as filed in PubChem.
